Assay outcomes (PubChem BioAssay)
BJeLR viability = BJeLR cell viability loss, primary screen, luminescence, CellTiterGlo ATP; hit rate 0.64% among 30,000; BJeLR fibroblasts viability, 48 h; HRASV12, hTERT and SV40 LT/ST transformed; viability loss activity score, % (no concentration beside the values); AID 2275, 2010; in the data active means viability loss activity score above about 50%; about a fifth of its hits are not listed in these tables;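 further: higher score means fewer live cells and less ATP luminescence; stock transfer was 50 or 100 nL into about 30 µL; 0% = vehicle wells and 100% = a reference killing control; one replicate is shown; the record names a cut of 85%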
A1 inhib = inducers of caspase activity in MEF A1-2A-BIM cells, primary screen, A1 inhibitor project, cell-based, CaspaseGlo luminescence; caspase-Glo luminescence, 3 h; percent of clofoctol signal, DMSO as zero; caspase activation, % (test concentration not listed); hit rate 0.51% among 21,000;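 active means most replicate scores above 10, or exactly half above 10 with mean activity above 10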;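 further: effector caspase 3 and 7 activity cleaving a DEVD luciferin substrate; 50 nL library stock added to about 30 µL; numbers are from one replicate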
* hit, by the source's call; x = no result given; & = joins results of further samples.

no.	Molecule	BJeLR viability	A1 inhib
1	C[C@@H]1CN([C@H](C)CO)C(=O)c2cc(NC(=O)Cn3cnnn3)ccc2O[C@H]1CN(C)Cc1ccc(-c2ccccc2)cc1	-0.4	1.0
2	COC(=O)/C=C/c1ccc(OC)c(/C=C/C(C)(C)O)c1	2.1	-0.3
3	O=C(CSc1nc2ccccc2c(=O)n1C1CC1)c1ccc(Cl)cc1	4.2	-0.1
4	C[C@@H]1CN([C@@H](C)CO)C(=O)c2cc(NC(=O)Nc3ccc(C(F)(F)F)cc3)ccc2O[C@H]1CN(C)S(=O)(=O)c1ccccc1	-4.4	-0.4
5	C[C@H](CO)N1C[C@H](C)[C@@H](CN(C)S(=O)(=O)c2ccc(F)cc2)Oc2ccc(NC(=O)Nc3ccc(C(F)(F)F)cc3)cc2C1=O	-4.0	0.0
6	CC(C)(Oc1ccc(CCNC(=O)c2ccc(Cl)cc2)cc1)C(=O)O	-6.5	0.3
7	CC(=O)N1CCC(N(C(=O)Nc2ccccc2)C2CCCC2)CC1	-1.8	0.7
8	Cc1ccc(S(=O)(=O)N(C)C[C@@H]2Oc3ccc(NC(=O)C4CCCCC4)cc3C(=O)N([C@H](C)CO)C[C@@H]2C)cc1	2.8	-0.1
9	CC1Cc2ccc3c(c2C(O)C1)C(=O)c1cccc(O)c1C3O (stereo not given)	6.0	0.0
10	CC(=O)O[C@H]1[C@H](Oc2ccccc2COC(=O)C2(O)C=CCCC2=O)O[C@H](CO)[C@@H](O)[C@@H]1O (stereo not given in full)	-17	-0.3
11	COc1ccc(CCC(=O)CCc2ccc(OC)cc2)cc1	-1.7	-1.3
12	C[C@@H]1CN([C@H](C)CO)C(=O)c2cccc(NC(=O)C3CCCCC3)c2O[C@@H]1CN(C)C	1.4	x
13	Cc1ccc(C)c(N2CCN(S(=O)(=O)c3ccc4nc(-c5ccccc5)[nH]c4c3)CC2)c1	-5.5	x
14	COC(=O)C(NC(=O)c1ccc(S(=O)(=O)N2CCOCC2)cc1)C(C)C (stereo not given)	-7.0	0.6
15	COc1ccc(NC(=O)Nc2ccc3c(c2)C(=O)N([C@@H](C)CO)C[C@@H](C)[C@@H](CN(C)S(=O)(=O)c2cccs2)O3)cc1	-2.6	0.8
16	O=C(NC1CCCCC1)c1ccc(COCC(F)(F)F)o1	-3.5	x
17	O=C1OC(Oc2cccc3cccnc23)(c2ccccc2)c2ccccc21 (stereo not given)	-1.5	-0.2
18	O=C(Cn1c(-c2cccs2)cc2ccccc21)NC1CCCCC1	-0.6	-0.2
19	Cc1cc(C(=O)Nc2cccc3c2O[C@H](CN(C)Cc2ccc(C(F)(F)F)cc2)[C@@H](C)CN([C@H](C)CO)C3=O)n(C)n1	-1.0	x
20	Cc1cc(C)cc(NC(=O)c2oc3c(c2C)-c2[nH]ncc2CC3)c1	-0.9	-4.8
21	Cc1ccc(S(=O)(=O)N(C)C[C@H]2Oc3c(NS(C)(=O)=O)cccc3C(=O)N([C@H](C)CO)C[C@H]2C)cc1	2.2	x
22	CN(C)Cc1c(C#N)c2ccccc2n1C	-1.8	-1.3
23	COc1ccc(CN(C)C[C@H]2Oc3ccc(NC(=O)NC(C)C)cc3C(=O)N([C@@H](C)CO)C[C@@H]2C)cc1	2.3	0.6
24	CCn1c2ccccc2c2cc(NC(=O)c3ccccc3C)ccc21	0.8	0.4
25	CCCCCCCC(O)C(O)C1CC(OC)=CC(=O)O1 (stereo not given)	1.2	-0.2
26	Cc1cccn2cc(CNC(=O)CC3CCCC3)nc12	-0.2	0.2
27	C[C@H]1CN([C@@H](C)CO)C(=O)c2cc(NC(=O)Nc3ccc(C(F)(F)F)cc3)ccc2O[C@@H]1CN(C)S(=O)(=O)c1ccc(F)cc1	-4.2	-0.1
28	C[C@@H]1CN([C@@H](C)CO)C(=O)c2cc(NC(=O)CCCCCC(=O)Nc3ccccc3N)ccc2O[C@@H]1CN(C)C(=O)Nc1ccc2c(c1)OCO2	-2.5	x
29	CSc1nc2cc(C)nn2c(-c2ccc(C(C)(C)C)cc2)c1C#N	0.6	-0.6
30	C[C@H](CO)N1C[C@H](C)[C@H](CN(C)Cc2ccc(C(F)(F)F)cc2)Oc2ccc(NS(=O)(=O)c3cccs3)cc2C1=O	1.5	-0.6
31	Cc1ccc2c(=O)c(C(=O)c3ccccc3)coc2c1	3.8	-1.2
32	Cc1ccc(S(=O)(=O)N(C)C[C@@H]2Oc3c(NC(=O)Nc4ccc5c(c4)OCO5)cccc3C(=O)N([C@H](C)CO)C[C@H]2C)cc1	-5.7	x
33	CCOC(=O)c1cc(-c2ccc(Cl)cc2)[nH]c(=O)c1C#N	3.2	-1.6
34	CCCn1c(=N)c(C(=O)NC2CCCC2)cc2c(=O)n3ccccc3nc21	2.5	0.6
35	Cc1ncc2c(c1OC(=O)c1ccccc1)COC(C)(C)OC2	1.2	-0.4
36	COc1ccc(S(=O)(=O)Nc2ccc3c(c2)C(=O)N([C@@H](C)CO)C[C@@H](C)[C@H](CN(C)C(=O)Nc2ccc(C(F)(F)F)cc2)O3)cc1	-1.8	0.1
37	CSc1ccc2c(c1)C(N1CCN(C)CC1)Cc1ccccc1S2 (stereo not given)	-2.8&2.3	0.9&0.6
38	C[C@H](CO)N1C[C@H](C)[C@H](CN(C)C)Oc2c(NC(=O)Nc3cccc4ccccc34)cccc2C1=O	-3.1	x
39	COc1ccc(CN(C)C[C@@H]2Oc3c(NS(C)(=O)=O)cccc3C(=O)N([C@H](C)CO)C[C@@H]2C)cc1	15	x
40	C[C@H]1CN([C@@H](C)CO)C(=O)c2cc(NC(=O)C3CCCCC3)ccc2O[C@H]1CN(C)S(C)(=O)=O	1.5	-0.5
41	CCOC(=O)c1ccc(Nc2cc(C)nc(-c3ccccc3)n2)cc1	18	-0.2
42	Cc1cc(C)c(OCC(O)CNC(C)(C)C)c(C)c1 (stereo not given)	-0.5	0.6
43	C[C@H](CO)N1C[C@H](C)[C@@H](CN(C)Cc2ccc(C(=O)O)cc2)Oc2ccc(NC(=O)Cc3ccccc3)cc2C1=O	-2.2	0.6
44	CCN(CC)N1CCN(S(=O)(=O)c2ccc(S(=O)(=O)c3ncccn3)cc2)CC1	-0.2	0.3
45	CC(C)=C1C2C=CC1C1C(=O)N(Cc3cccnc3)C(=O)C21 (stereo not given)	2.9	1.9
46	Cn1c(=S)n(CCSc2nc3ccccc3n2-c2ccccc2)c2ccccc21	5.2	-1.0
47	O=C(Nc1ccc(OC(F)(F)F)cc1)Nc1ccc(C2=NCCO2)cc1	4.8	x
48	CC(C)n1c(-c2ccccc2)csc1=Nc1ccccc1	6.8	-1.3
49	CCN=C(NCC)Nc1ccc(Cl)cc1	-3.3	0.7
50	CC1Cc2ccccc2N1C(=O)c1cccc(COc2ccc(Cl)cc2)c1 (stereo not given)	2.0	x
51	CC(C)(C)[C@]1(O)CCN2C[C@H]3c4ccccc4CCc4cccc(c43)[C@@H]2C1	6.0	0.8
52	COc1cc(OC)c2ccc(=O)oc2c1CC(O)C(C)(C)OC (stereo not given)	-5.5	-0.9
53	S=C(NC1CC1)N1CCCN(Cc2cccc3ccccc23)CC1	4.5	-0.3
54	COc1ccc(OC)c(CCCc2cc(OC)ccc2OC)c1	-3.6	-0.4
55	C[C@@H]1CN([C@H](C)CO)C(=O)c2cccc(NC(=O)c3ccncc3)c2O[C@@H]1CN(C)Cc1ccc(C(F)(F)F)cc1	-0.3	x
56	C[C@@H]1CN([C@@H](C)CO)C(=O)c2cccc(NC(=O)c3ccncc3)c2O[C@H]1CN(C)Cc1ccc2c(c1)OCO2	-1.3	x
57	CCN(CC)C(=O)Oc1nnc(SC(C)C)n1-c1ccc(Cl)c(Cl)c1	-4.5	-0.5
58	CC1CC(=O)C2C(O)(C1)CC(O)C13OC1c1c(O)cccc1C(=O)C23O (stereo not given)	-7.1	0.0
59	C[C@H](CO)N1C[C@H](C)[C@H](CN(C)Cc2ccc(Oc3ccccc3)cc2)Oc2c(NC(=O)C3CCCCC3)cccc2C1=O	5.4	x
60	Cc1ccc(-n2c(C)cc(=O)cc2C)c(C)c1	1.9	0.1

Of the compounds above, 5 contain an aryl thioether with sulfur outside any ring:
no.	Molecule	BJeLR viability	A1 inhib
3	O=C(CSc1nc2ccccc2c(=O)n1C1CC1)c1ccc(Cl)cc1	4.2	-0.1
29	CSc1nc2cc(C)nn2c(-c2ccc(C(C)(C)C)cc2)c1C#N	0.6	-0.6
37	CSc1ccc2c(c1)C(N1CCN(C)CC1)Cc1ccccc1S2 (stereo not given)	-2.8&2.3	0.9&0.6
46	Cn1c(=S)n(CCSc2nc3ccccc3n2-c2ccccc2)c2ccccc21	5.2	-1.0
57	CCN(CC)C(=O)Oc1nnc(SC(C)C)n1-c1ccc(Cl)c(Cl)c1	-4.5	-0.5

The list goes on.
no.	Molecule	BJeLR viability	A1 inhib
61	COc1ccc(S(=O)(=O)Nc2cccc3c2O[C@@H](CN(C)S(=O)(=O)c2ccc(OC)cc2)[C@H](C)CN([C@H](C)CO)C3=O)cc1	2.5	x
62	COc1ccc(S(=O)(=O)Nc2cccc3c2O[C@@H](CN(C)S(=O)(=O)c2ccccc2)[C@H](C)CN([C@@H](C)CO)C3=O)cc1	-6.6	x
63	CCn1c(=N)c(S(=O)(=O)c2ccccc2)cc2c(=O)n3ccccc3nc21	-2.9	0.5
64	C[C@@H]1CN([C@H](C)CO)C(=O)c2cc(NC(=O)Nc3ccc(C(F)(F)F)cc3)ccc2O[C@H]1CN(C)Cc1ccc(Oc2ccccc2)cc1	1.4	0.3
65	Cc1ccc(-c2noc(CN3CCN(c4ccccc4F)CC3)n2)cc1	2.4	0.4
66	CCc1nnc(SCC(=O)NCc2ccc(C)cc2)c2cc3sccc3n12	1.7	0.2
67	COc1ccccc1NC(=O)C1c2ccccc2Oc2ccccc21	-5.3	-0.4
68	C=CCN(CC=C)C(=O)Cc1ccc(Br)cc1	1.1	-0.3
69	O=C(O)CCNC(=O)Nc1ccccc1	-2.5	-1.2
70	CNC(=O)c1c(-c2ccccc2)c2cc(OC)ccc2n1CCN(C)C	3.0	0.1
71	Cc1cc(C(=O)Nc2cccc3c2O[C@@H](CN(C)Cc2ccc(C(=O)O)cc2)[C@H](C)CN([C@@H](C)CO)C3=O)n(C)n1	2.8	x
72	Cc1nc(CSc2nnc3scc(-c4ccccc4)n23)cs1	-2.0	-0.4

Gathered by group, the compounds so far with a furan ring, fused or not (2)
no.	Molecule	BJeLR viability	A1 inhib
16	O=C(NC1CCCCC1)c1ccc(COCC(F)(F)F)o1	-3.5	x
20	Cc1cc(C)cc(NC(=O)c2oc3c(c2C)-c2[nH]ncc2CC3)c1	-0.9	-4.8

(next part)
no.	Molecule	BJeLR viability	A1 inhib
73	Oc1ccccc1C=Nc1cccc(N=Cc2ccccc2O)c1	-2.3	-0.5
74	O=C(CSc1oc(-c2ccco2)nc1S(=O)(=O)c1ccc(Cl)cc1)NC1CCCCC1	0.1	x
75	COc1ccc(CN(C)C[C@@H]2Oc3ccc(NS(=O)(=O)c4ccccc4)cc3C(=O)N([C@H](C)CO)C[C@H]2C)cc1	-0.4	0.6
76	C[C@@H]1CN([C@H](C)CO)C(=O)c2cc(NC(=O)C3CCCCC3)ccc2O[C@H]1CN(C)Cc1ccc(C(=O)O)cc1	1.3	1.1
77	CC(C)NC(=O)Nc1cccc2c1O[C@H](CN(C)C(=O)NC(C)C)[C@@H](C)CN([C@H](C)CO)C2=O	-1.5	x
78	C[C@@H]1CN([C@H](C)CO)C(=O)c2cc(NS(=O)(=O)c3cn(C)cn3)ccc2O[C@H]1CN(C)S(=O)(=O)c1ccc(Cl)cc1	-8.9	-0.2
79	CNC[C@H]1Oc2ccc(NS(=O)(=O)c3c(C)noc3C)cc2C(=O)N([C@H](C)CO)C[C@@H]1C	-1.5	1.0
80	C[C@H](CO)N1C[C@H](C)[C@@H](CN(C)C(=O)Nc2ccc(C(F)(F)F)cc2)Oc2ccc(NC(=O)Cn3cnnn3)cc2C1=O	-3.4	0.3
81	C[C@H]1CN([C@@H](C)CO)C(=O)c2cc(NC(=O)Nc3ccc(C(F)(F)F)cc3)ccc2O[C@H]1CN(C)S(=O)(=O)c1cn(C)cn1	-5.4	-0.3
82	COc1ccc(CN(C)C[C@H]2Oc3ccc(NS(=O)(=O)c4ccc(OC)cc4)cc3C(=O)N([C@@H](C)CO)C[C@@H]2C)cc1	-1.0	0.7
83	C[C@H](CO)N1C[C@H](C)[C@H](CN(C)CC2CCCCC2)Oc2c(NC(=O)c3cnccn3)cccc2C1=O	0.1	x
84	O=C(Cc1csc(Nc2nc(=S)[nH]c3ccccc23)n1)N1CCN(c2cccc(Cl)c2)CC1	-4.7	2.7
85	CC(C)CCNC(=O)Cc1cccs1	4.7	2.0
86	CC(C)(C)c1cc(C(=O)Nc2ccc(Cl)cc2)n(Cc2ccccc2)n1	1.4	-0.3
87	Cc1noc(C)c1S(=O)(=O)Nc1ccc2c(c1)C(=O)N([C@H](C)CO)C[C@@H](C)[C@@H](CN(C)C)O2	0.7	-0.5
88	CC1Cc2ccccc2N1S(=O)(=O)c1ccc2[nH]c(=O)c(=O)[nH]c2c1 (stereo not given)	-2.3	x
89	CCN1CCN(C(=O)C2CCN(S(=O)(=O)c3ccc4c(c3)nc(C)n4C3CCCC3)CC2)CC1	-11	1.9
90	COC(=O)c1ccc2c(c1)sc1nc(-c3ccc(Cl)cc3)cn12	-6.7	-2.1
91	O=C(Nc1ccccc1F)NC1CCCc2ccccc21 (stereo not given)	-0.5	-0.4
92	C[C@@H]1CN([C@H](C)CO)C(=O)c2cc(NS(=O)(=O)c3cn(C)cn3)ccc2O[C@H]1CN(C)Cc1ccc(C(=O)O)cc1	-1.8	0.4

These rows are one share of the data; rates above refer to the full screens.
